# Screening results (PubChem)
# Vaccinia Venus: vaccinia inhibition (Venus reporter); Vaccinia virus Venus reporter expression, fluorescence; Potency, µM (highest dose often 36.5 µM), for the others: at the highest dose activity change, negative = inhibition, most hits filed as inhibitors; actives 0.46% (n = 330,000); active means well fitted inhibition curve with a large enough effect; inconclusive means small, poorly fitted or top-dose-only effect; inactive means no such curve, though single readings can be large or run the other way; tested in A549 cells; note: nearly all actives have a fitted effect of over 30% in size; inactives centre near -10
# VACV mCherry inh: vaccinia inhibition (mCherry reporter); Vaccinia virus mCherry reporter infection, fluorescence; about a quarter of the inactives have no number; Potency, µM (series often up to 36.5 µM), without a hit: at the highest dose activity change, negative = inhibition, actives largely listed as inhibitors; actives 0.63% (n = 310,000); AID 720579; active = well fitted inhibition curve with a large enough effect; inconclusive = small, poorly fitted or top-dose-only effect; inactive = no such curve, though single readings can be large or run the other way; tested in A549 cells; note: nearly all actives have a fitted effect of over 35% in size; inactives centre near -10
# * hit, by the source's call; i = inactive; ? = inconclusive; / = no result given; [ ] = dose if it differs, or a comment. % is set by controls: 0 for no effect and ±100 for the full control effect; potency is the fitted concentration of half-maximal effect.
SMILES | Vaccinia Venus | VACV mCherry inh
CCOC(=O)C1CCC(CN(Cc2ccccc2)S(=O)(=O)c2ccc(Br)cc2)CC1 (configuration not stated) | -6.4% | -3.7%
CSCCC(NC(=O)c1ccccc1)C(=O)NCCc1ccccc1 (configuration not stated) | 6.6% | -5.5%
COc1ccc(N(C(=O)c2ccc(S(=O)(=O)N3CCOCC3)cc2)C2C=CS(=O)(=O)C2)cc1 (configuration not stated) | -7.4% | -16.4%
Cc1nc2ncnn2c(N2CCN(C(=O)c3cccc(F)c3)CC2)c1C | -12.8% | -0.4%
CN(CCOc1ccc(Cl)cc1)C(=O)c1cc(-c2ccco2)nc2ccccc12 | -14.0% | i
CCN(c1ccccc1)S(=O)(=O)c1ccc(C(=O)Nc2c(C)n(C)n(-c3ccccc3)c2=O)cc1 | -19.5% | i
CCc1ccc(-c2nc3c(c(SCc4ccccc4)n2)Cc2c(CO)cnc(C)c2O3)cc1 | -10.3% | -7.2%
CC(C)c1ccc(Nc2ncnc3onc(-c4ccc(F)cc4)c23)cc1 | -16.2% | -18.7%
COc1cc(OC)cc(C(=O)NC(=S)N2CCN(c3ccc(C(F)(F)F)cc3[N+](=O)[O-])CC2)c1 | -12.3% | /
CN1CCN(c2ncc(C=O)s2)CC1 | -11.5% | -19.6%
O=C(NC1CC1)c1cc(-c2ccco2)nc2ccccc12 | 0.1% | -19.0%
Cc1ccc(-n2ncc3c(N4CCCCCC4)ncnc32)cc1C | 7.0% | 11.4%
CS(=O)(=O)Nc1ccc(C(=O)NCc2ccc3c(c2)OCO3)cc1 | -8.8% | -8.4%
Cc1ccc(-c2csc3nc(-c4ccncc4)[nH]c(=O)c23)cc1 | -4.5% | -4.9%
COC(=O)COc1ccc(S(=O)(=O)NCc2ccccn2)cc1 | 1.5% | -11.3%
COc1ccc(Nc2nc(C)cc(C)c2C(N)=O)cc1 | -8.8% | -14.6%
CC1CCc2c(sc(NC(=O)COC(=O)c3ccc(O)cc3)c2C#N)C1 (configuration not stated) | -5.4% | 4.0%
COCCNC(=O)CNC(=S)N(CCCN1CCOCC1)Cc1cccs1 | -17.1% | -13.3%
CCn1c(CCCOc2ccc(Cl)cc2Cl)n[nH]c1=S | -26.9% | -15.3%
C(=Nc1cnc2ccccc2c1)c1ccncc1 | 6.7% | 25.3%
COC(=O)c1ccc(COC(=O)Cc2n[nH]c(=O)c3ccccc23)cc1 | -8.9% | -4.3%
CCCCN(C(=O)CCC(=O)Nc1cc(C)on1)C(C(=O)NC1CCCC1)c1ccc(OC)cc1 (configuration not stated) | -22.7% | -28.4%
COc1cc(OC)c(OC)cc1CN1CCOc2ccc(CN3CCN(C(C)=O)CC3)cc2C1 | -9.9% | -14.9%
COc1ccc(Cl)cc1NC(=O)CSc1nc2c([nH]c3ccccc32)c(=O)n1-c1ccccc1 | -25.5% | -24.1%
CCCCNc1nc(NCc2ccccc2)nc2ccccc12 | ? | ?
NS(=O)(=O)c1ccc(NC(=O)Cc2cccs2)cc1 | -16.9% | i
O=C(CCCCn1c(=O)c2ccccc2n(CC(=O)Nc2cccc(F)c2)c1=O)NCc1ccccc1Cl | -6.1% | -17.8%
O=C(O)/C=C/c1cnc2ccccc2c1 | -10.4% | -0.4%
COc1ccc(-n2c(Cc3cccn3C)nnc2SCC(=O)Nc2ccc3c(c2)OCCO3)cc1 | -4.3% | -0.2%
CCc1nnc(NC(=O)COc2ccc([N+](=O)[O-])cc2)s1 | -6.8% | -1.0%
O=C(COc1ncnc2ccc(Br)cc12)NCc1ccc2c(c1)OCO2 | -8.9% | -10.4%
O=C(Cn1cnc2c(OCc3ccccc3)ncnc21)NCCCc1ccccc1 | -0.8% | -23.0%
COc1ccc(C2CC(=O)NC(NC(=O)c3ccc(Br)cc3)=N2)c(OC)c1OC (configuration not stated) | -8.3% | i
NN=C(c1cccc([N+](=O)[O-])c1)c1cccc([N+](=O)[O-])c1 | -0.5%[7.34 µM] | -15.3%[7.34 µM]
CN1C(=O)/C(=N\OC(=O)c2cccc3ccccc23)c2ccccc21 | -13.6% | -17.5%
COc1ccc(N(C(C)=O)C2SC(=O)N(c3ccccc3)C2=O)cc1 (configuration not stated) | -16.2% | -14.3%
Cc1ccccc1CN1CCN(C(=O)c2cc(-c3ccncc3)nc3ccccc23)CC1 | -19.9% | -10.0%
Fc1ccc(-n2cc(CNCCc3ccccn3)c(-c3ccccc3Cl)n2)cc1 | -20.6% | -22.5%
Cc1cc(NS(=O)(=O)c2ccccc2)cc(Cl)c1O | -11.0% | -26.4%
COc1ccc(/C=N/Nc2cc(N3CCCC3)nc(N3CCCC3)n2)cc1 | ? | ?

# Full records, looked up by structure:
# Profile of COc1ccc(/C=N/Nc2cc(N3CCCC3)nc(N3CCCC3)n2)cc1 → Vaccinia Venus = ?; VACV mCherry inh = ?
# Profile of CN1C(=O)/C(=N\OC(=O)c2cccc3ccccc23)c2ccccc21 → Vaccinia Venus = -13.6%; VACV mCherry inh = -17.5%

# Other records follow:
SMILES | Vaccinia Venus | VACV mCherry inh
CCCCN1CC(C)(C)[C@H](CC(=O)Nc2ccc(Br)cc2)C1=O | -17.2% | i
Cc1cccc(C(=O)NNS(=O)(=O)c2ccccc2)c1O | -2.5% | -4.1%
CCCN1CCN(C(=S)Nc2ccc(SC(F)F)cc2)CC1 | -22.6% | -5.0%
CCOC(=O)c1c(NC(=O)Cn2cnc3scc(-c4ccc(C)cc4)c3c2=O)sc(C)c1C | -13.4% | i
Cn1c(=O)c2c(nc(NCCO)n2CCc2ccccc2)n(C)c1=O | -26.2% | -1.8%
COC(=O)C1=C(C(=O)OC)[C@@H]2N(C)c3ccc(OC)cc3[C@@]23C[C@@H](C(=O)OC)N(C(=O)NC2CCCCC2)C3=N1 | -17.5% | i
CCCN1CCN(CCCNC(=O)Cn2nc(-c3ccc(C)cc3)ccc2=O)CC1 | -11.5% | -12.4%
COc1ccc(/C=N/N=C2/CC(C)(C)Cc3n[nH]c(=O)cc32)cc1 | -11.8% | -2.6%
CCCN(CCC)c1cc(Cl)nc(N)n1 | -17.3% | i
CC(=O)Nc1cccc(/C(C)=N/NS(=O)(=O)c2ccc(C)cc2)c1 | 0.3% | 6.8%
Cc1ccc2c(c1)[C@H]1[C@H](CO2)[C@H](c2ccccc2)[C@]2(C)C(=O)N(C)CC(=O)N12 | -10.6% | 3.1%
CCN(Cc1ccncc1)C(=S)Nc1c(C)cccc1C | -3.5% | -10.6%
COc1ccc(-c2c(C#Cc3ccsc3)c3cc(-c4ccc5cc[nH]c5c4)ccc3n2C)cc1 | -13.7% | i
CCOc1ccc2nc(SCC(=O)NC(=O)C(C)C)sc2c1 | 2.6% | i
CC(=O)c1sc(NC(=O)c2cc(-c3ccccc3)nn2-c2ccccc2)nc1C | 2.4% | i
CCOc1ccccc1C(=O)N(Cc1cccs1)C1CCS(=O)(=O)C1 (configuration not stated) | -8.0% | /
COc1ccc(N2CCN(Cc3cccn3-c3nnc(N4CCN(C5CCCCC5)CC4)s3)CC2)cc1 | -12.0% | -15.5%
COc1ccc(S(=O)(=O)Nc2nnc(CC(C)(C)C)s2)cc1 | 2.1% | 3.7%
CCCCSCCCNC(=O)c1cc(-c2cccnc2)nc2ccc(S(=O)(=O)N3CCC(C)CC3)cc12 | 1.0% | -6.2%
COC1=CC(=O)CC(C)C12Oc1cc(OC)cc(OC)c1C2=O (configuration not stated) | 0.0% | 1.2%
Cc1c(C)c2ccc(OCC(=O)N[C@@H](Cc3ccccc3)C(=O)O)cc2oc1=O | -5.5% | -2.8%
O=c1c(-c2ccc(O)cc2)coc2c(C3O[C@H](CO)[C@@H](O)[C@H](O)[C@H]3O)c(O)ccc12 (some centres not stated) | 1.1% | -13.6%
CCCOc1ccccc1Cn1c(=O)oc2ccccc21 | 8.7% | i
CCc1ccc(NC(=O)CSC2=C(C#N)C(c3ccco3)C3=C(CCCC3=O)N2)cc1 (configuration not stated) | -17.2% | -20.8%
NS(=O)(=O)c1ccc(N/C=C/C(=O)c2ccc(Br)cc2)cc1 | -13.4% | i
O=C(Cc1ccc(NC(=O)N2CCCCc3ccccc32)cc1)NCc1cccc(Br)c1 | -8.8% | -0.7%
Fc1ccc(CNCc2ccc3c(c2)OCO3)cc1 | -9.8% | -9.1%
COc1ccc(CN(C)CC(O)COc2ccc(C(=O)c3ccccc3)cc2)c(OC)c1OC (configuration not stated) | -18.9% | i
COC(=O)C1=C(C)N(CCCC(=O)O)C(=O)NC1c1ccc(Br)cc1 (configuration not stated) | -9.7% | i
O=C(C[C@@H]1C/C=C/CC[C@H](Cc2ccc(F)cc2)C(=O)OC[C@@H](Cc2ccccc2)NC1=O)N[C@H](CO)Cc1ccccc1 | 14.1µM* | 10µM*
CCOc1ccc(NC(=O)Cn2cc(C(=O)c3ccc(C)cc3)c(=O)c3cc4c(cc32)OCO4)cc1 | 3.5% | 6.6%
COc1ccc(CNS(=O)(=O)CCNC(=O)c2ccccc2)cc1 | -3.3% | -11.5%
Cc1ccc(NS(=O)(=O)c2ccc3[nH]c(=O)sc3c2)cc1 | -11.5% | -5.6%
C=CCn1c(SCC(=O)Nc2nnc(CC)s2)nnc1-c1ccncc1 | -9.2% | i
Cc1cccc(CC2SC(N)=NC2=O)c1 (configuration not stated) | 0.6% | -10.0%
Cc1nn(C)cc1CN(C)C(=O)c1cc(COc2ccc(F)cc2F)on1 | -22.7% | -0.3%
COc1cccc(NC(=O)CN(C)C(=O)CN2C(=O)NC3(CCCC3)C2=O)c1 | -20.8% | -1.2%
COC(=O)Cn1c(=NC(=O)c2ccc3c(c2)OCCO3)sc2ccccc21 | -5.6%[7.34 µM] | -6.6%[7.34 µM]
COc1ccc([C@H]2CC(=O)C=C(c3ccc(C)cc3)C2)cc1OC | -9.4% | ?
CC1CN(C(=O)c2ccc(COc3ccccc3Cl)o2)CC(C)O1 (configuration not stated) | -1.7% | i
COC(=O)[C@@]1(Cc2ccc(F)cc2)[C@H]2c3cc(C(=O)N4CCCC4)n(Cc4cc(F)cc5c4OCOC5)c3C[C@H]2CN1C(=O)c1ccccc1 | -12.3% | -5.9%
CN1CCN(c2ccc(CNC[C@H]3O[C@@H](n4cnc5c(=O)[nH]c(N)nc54)[C@H](O)[C@@H]3O)c(S(C)(=O)=O)c2)CC1 | -6.5% | 1.5%
CC1=C(C(=O)N2CCOCC2)CC(CC(=O)NCC2CCCCC2)C(=O)N1Cc1ccc(C(C)(C)C)cc1 (configuration not stated) | -15.0% | i
COc1ccc(CCN(C)C(=O)Cn2c(=O)oc3ccccc32)cc1OC | -18.5% | -16.8%
Cc1ccc(C(=O)N2CCN(C(=O)CN3CCOCC3)C2)cc1 | -0.8% | /
Cc1ccccc1NS(=O)(=O)c1ccc(C(=O)NN2CCCCC2)cc1 | -14.3% | -14.0%
O=C(Cc1ccccc1)Nn1c(-c2ccccc2)nc2ccccc2c1=O | -10.7% | i
Cc1ccsc1/C=N/NC(=O)C1CC(=O)N(c2ccccc2)C1 (configuration not stated) | -12.1% | -9.2%
COc1ccc(/C=C/C=C2\NC(=S)NC2=O)cc1 | -7.4% | i
CN(C)CCNCCCNc1c2ccccc2nc2cccc([N+](=O)[O-])c12 | -19.1% | -44.4%
O=C1Nc2ccccc2C(=O)N2CCCCC12 (configuration not stated) | 7.6% | i
CSc1ccccc1NC(=O)CN(C)C(=O)c1cccc(S(=O)(=O)N(C)C)c1 | -14.7% | i
Cc1c(Cl)ccc2c1NC(=O)[C@]21N[C@@H](CCC(N)=O)[C@H]2C(=O)N(c3ccc(F)cc3)C(=O)[C@H]21 | -8.2% | -8.3%
Cc1ccc(-c2nc3ccccc3c(=O)n2-c2ccncc2)cc1 | -9.8% | -8.7%
CCOC(=O)/C(C#N)=C\c1cn(C)c2ccccc12 | -5.0% | -3.2%
CCCCc1nnc(NC(=O)c2ccc(-n3cncn3)c([N+](=O)[O-])c2)s1 | 5.7% | -10.1%
Nc1ccc2nn(-c3cccc4ccccc34)nc2c1 | 6.3% | -8.8%
CCCCn1c(N)c(N(C)C(=O)c2ccc(OCC3CCCO3)cc2)c(=O)[nH]c1=O (configuration not stated) | -3.5% | -19.6%
CC1(C)CC(=O)C(/C=N/n2c(C(F)(F)F)nc3ccccc3c2=O)=C(O)C1 | -2.5% | -9.0%
CCn1c(SCC(=O)N(C)C2CCS(=O)(=O)C2)nnc1-c1ccccc1 (configuration not stated) | -9.4% | i

# (listing goes on)
SMILES | Vaccinia Venus | VACV mCherry inh
COc1ccc(Nc2ncc(C(=O)N3CCC4(CC3)OCCO4)c3ccccc23)cc1 | -23.4% | /
COc1ccc(COC(=O)N/N=C(\C)CC(=O)Nc2ccc(Cl)cc2)cc1 | -6.1% | i
CCNc1nc(NCC)nc(N/N=C/c2ccc(O)c(OC)c2)n1 | 11.2% | -15.6%
CC1=C(C(=O)Nc2cccnc2)C(c2ccccc2)n2nc(SCc3ccccc3F)nc2N1 (configuration not stated) | -6.5% | i

# Another view of part of the listing above:
Cc1cc(NS(=O)(=O)c2ccccc2)cc(Cl)c1O
  Vaccinia Venus: -11.0% | VACV mCherry inh: -26.4%

COC(=O)C1=C(C(=O)OC)[C@@H]2N(C)c3ccc(OC)cc3[C@@]23C[C@@H](C(=O)OC)N(C(=O)NC2CCCCC2)C3=N1
  Vaccinia Venus: -17.5% | VACV mCherry inh: i

NS(=O)(=O)c1ccc(NC(=O)Cc2cccs2)cc1
  Vaccinia Venus: -16.9% | VACV mCherry inh: i
